# Screening data as filed in PubChem.
# GIV Gai3 FP: blocks GIV peptide binding to rat Galpha-i3. 210,000 tested, 0.42% active. Galpha-i3/FITC-GIV peptide fluorescence polarization, 90 min; stronger effect = lower value; scaled: aluminum fluoride 0%, vehicle 100%. P08753. percent of control (FP), % (no concentration beside the values);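 active = replicate mean at 85% of control or lower, very high polarization wells dropped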;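 also: wells of about 15 µL received 100 nL stock; the first replicate is given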
# Target sequence (P08753 whole entry, looked up): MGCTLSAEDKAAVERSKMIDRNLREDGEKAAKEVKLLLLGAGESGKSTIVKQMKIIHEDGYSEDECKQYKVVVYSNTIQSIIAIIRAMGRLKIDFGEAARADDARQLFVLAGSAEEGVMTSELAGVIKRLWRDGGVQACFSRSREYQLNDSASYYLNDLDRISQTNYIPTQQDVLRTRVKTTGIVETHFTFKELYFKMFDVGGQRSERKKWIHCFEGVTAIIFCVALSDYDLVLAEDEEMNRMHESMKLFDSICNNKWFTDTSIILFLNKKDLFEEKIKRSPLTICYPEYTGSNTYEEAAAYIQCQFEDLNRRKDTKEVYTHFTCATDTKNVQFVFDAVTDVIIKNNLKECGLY
# Starred values were filed as active, the others as inactive.
GIV Gai3 FP	SMILES
105.9	O=C(CSc1nc2ccccc2c(=O)n1C1CCCC1)N1CCN(c2ccccc2)CC1
100.2	CCCc1cc(C2CCCN2Cc2ccc(OC(C)C)cc2)no1 (configuration not stated)
101.1	Cc1cccc(-c2cnc(Nc3cccc(C(=O)NC4CCCC4)c3)nc2)c1
103.2	CCOC(=O)N1CCN(C(=O)c2ccc(NCc3ccccc3Cl)c(S(=O)(=O)Nc3cccc(OC)c3)c2)CC1
107.0	O=C(Cn1nc2c3sc(N4CCCCC4)nc3ncn2c1=O)Nc1ccc(F)cc1Cl
102.9	O=C(NCc1cccc(Br)c1)c1nc(N2CCCC2)c2oc3ccccc3c2n1
102.8	CS(=O)(=O)N1CCCN(Cc2ccccn2)CC1
103.2	Cc1ccc(C23CC4CC(CC(C(=O)NCc5ccccc5)(C4)C2)C3)cc1
105.0	O=C1NC(c2ccccc2O)Nc2sc3c(c21)CCCC3 (configuration not stated)
108.8	CN1C(=S)SC(N2OC3C(=O)N(c4ccccc4)C(=O)C3C2c2ccccc2)C1(C)C (configuration not stated)
104.7	COc1cccc(-c2noc(CCn3nc(-c4ccc5c(c4)OCO5)ccc3=O)n2)c1OC
113.8	O=C1CSC(c2cc3c(cc2[N+](=O)[O-])OCO3)N1c1ccc(Oc2ccccc2)cc1 (configuration not stated)
97.2	COc1ccc(C2C3=C(CC(C)(C)CC3=O)OC3=C2C(=O)CC(C)(C)C3)cc1COc1ccc(F)cc1
101.7	O=C(CCc1nc(CSc2nc(-c3ccccc3)cs2)no1)Nc1ccccc1F
102.8	COc1ccccc1C(=O)Nc1ccc2nc(SCC(=O)Nc3ccccc3F)sc2c1
104.0	O=C(c1cccc(-c2nc(-c3ccccc3)no2)c1)N1CCN(c2ccccc2F)CC1
104.9	CCOC(=O)c1sc2nc(SCC(=O)C(C)(C)C)n(Cc3ccccc3)c(=O)c2c1C
102.3	CC(C)CNS(=O)(=O)c1ccc(-c2nnc(C3CC3)o2)o1
108.0	COc1ccc(-c2cc(C(F)(F)F)n3nc(C(=O)N4CCN(C(=O)c5ccco5)CC4)cc3n2)cc1
102.0	CCOC(=O)c1sc2nc(CC(=O)OC)nc(Nc3cnc4ccccc4c3)c2c1C
110.9	CCOC(=O)C1=C(C)OC(N)=C(C#N)C1c1ccc(OCc2ccccc2)cc1 (configuration not stated)
103.7	CCN=C1S/C(=C\c2cn(C(C)=O)nc2-c2ccc(F)cc2)C(=O)N1CC
112.9	COc1cc(Cl)cc2c1OC1(C=C2)c2ccccc2-c2ccccc2N1C (configuration not stated)
103.4	Cc1ccc(-n2c(-c3ccco3)n[nH]c2=S)cc1C
109.7	Cc1nn2c3ccccc3n(CCN3CCCCC3)c2nc1=O
111.4	O=C(CCCn1c(SCC(=O)Nc2ccccc2C(F)(F)F)nc2ccccc2c1=O)NCCCN1CCOCC1
104.7	CCOC(=O)C1CCCN(c2ncnc3c2cnn3-c2ccc(OC)cc2)C1 (configuration not stated)
107.4	CC(C)(C)c1csc(-c2csc(S(=O)(=O)NCc3ccc(F)cc3)c2)n1
108.9	O=C1c2cccc3c([N+](=O)[O-])ccc(c23)C(=O)N1c1cccc(-c2nc3ccccc3c(=O)o2)c1
104.1	Cc1cc(C(F)(F)F)c2c(N)c(C(=O)c3ccc([N+](=O)[O-])cc3)sc2n1

# Filtered by structure, the entries above with two or more sulfur atoms.
GIV Gai3 FP	SMILES
108.8	CN1C(=S)SC(N2OC3C(=O)N(c4ccccc4)C(=O)C3C2c2ccccc2)C1(C)C (configuration not stated)
101.7	O=C(CCc1nc(CSc2nc(-c3ccccc3)cs2)no1)Nc1ccccc1F
102.8	COc1ccccc1C(=O)Nc1ccc2nc(SCC(=O)Nc3ccccc3F)sc2c1
104.9	CCOC(=O)c1sc2nc(SCC(=O)C(C)(C)C)n(Cc3ccccc3)c(=O)c2c1C
107.4	CC(C)(C)c1csc(-c2csc(S(=O)(=O)NCc3ccc(F)cc3)c2)n1

# Structural class: the entries above containing a furan ring, fused or not.
GIV Gai3 FP	SMILES
102.9	O=C(NCc1cccc(Br)c1)c1nc(N2CCCC2)c2oc3ccccc3c2n1
102.3	CC(C)CNS(=O)(=O)c1ccc(-c2nnc(C3CC3)o2)o1
108.0	COc1ccc(-c2cc(C(F)(F)F)n3nc(C(=O)N4CCN(C(=O)c5ccco5)CC4)cc3n2)cc1
103.4	Cc1ccc(-n2c(-c3ccco3)n[nH]c2=S)cc1C

# (listing goes on)
GIV Gai3 FP	SMILES
102.0	CN(C)c1cccc(C(=O)N2CCc3c(c(C(=O)N4CCCC(C(=O)NC5CC5)C4)nn3C)C2)c1 (configuration not stated)
97.8	Cn1c(=O)n(CC(=O)N2CCCC2)c(=O)c2cc(S(=O)(=O)NC3CCCC3)ccc21
104.7	CCOC(=O)CSc1nc2cc(-c3ccccc3)sc2c(=O)n1C
106.3	CC(C)(C)C1CCc2c(sc3nc(-c4ccccc4Cl)oc(=O)c23)C1 (configuration not stated)
95.7	O=C1CSc2sc(=O)sc2SC1
104.7	CC(C)(C)c1cc(CN2CCCCC2)cc(C(C)(C)C)c1O
108.5	O=C(Nc1nc(C23CC4CC(CC(C4)C2)C3)cs1)c1c(O)c2cccc3c2n(c1=O)CC3
113.6	O=C1/C(=C\c2ccccc2)S/C(=N\c2ccccn2)N1c1ccccc1
104.4	CCOc1ccc(-c2csc(Cc3nc(-c4ccc(F)cc4)no3)n2)cc1
106.8	CCOc1ccccc1NC(=O)c1ccc(-c2cc(Oc3ccccc3OC)ncn2)cc1
110.6	COc1ccc(C(=O)c2sc3nc(-c4ccccc4)cc(C(F)(F)F)c3c2N)cc1
101.9	O=C(CCc1ccccc1)N1CCN(Cc2noc(-c3ccccc3)n2)CC1
105.7	O=C(CCc1nc(CSc2nc3ccccc3s2)no1)Nc1ccc(F)cc1F
100.4	O=c1n(Cc2cc(F)cc(F)c2)nc2c(S(=O)(=O)N3CCOCC3)cccn12
111.3	CC(C)Nc1nc2ncc(N3CCOCC3)nc2s1
109.3	COc1cc(C2C(C#N)=C(N)Oc3n[nH]c(-c4ccc(Br)cc4)c32)ccc1OC(=O)c1ccco1 (configuration not stated)
101.2	COc1ccc(Br)cc1-c1nc(CSc2nc3c(=O)[nH]c(C)nc3n2C)c(C)o1
130.9	CCCS(=O)(=O)c1c(S(=O)(=O)CCC)c2c3ccccc3ccn2c1C(=O)c1ccc(F)cc1
103.3	CCCCn1c(CNC(=O)c2ccc([N+](=O)[O-])cc2)nnc1SCC(=O)Nc1sc2c(c1C(=O)OCC)CCC2
108.9	CCOc1ccc(N2CC(O)(c3ccc(OC)cc3)[N+]3=C2CCCC3)cc1 (configuration not stated)
98.2	O=C(NC1CCCCCC1)C1CCN(c2cnc(N3CCCCCC3)nc2)CC1
111.1	CCn1c(=O)/c(=C\C=C2/SC(c3ccccc3)=C(c3ccccc3)N2C)s/c1=C1/C(=O)N(c2ccccc2)N=C1C
111.6	CCN(CC)C(=O)c1sc2nc(SCC#N)n(CCc3ccccc3)c(=O)c2c1C
106.6	CCOC(=O)c1c(NC(=O)C(C)Sc2nnc(CNC(=O)c3cccs3)n2C)sc2c1CCC2 (configuration not stated)
105.8	c1ccc(CSc2nnc3c(n2)-c2cccc4cccc-3c24)cc1
97.0	Fc1ccc(-c2noc(-c3ccc(NCC4CCCO4)nc3)n2)cc1 (configuration not stated)
105.9	COc1ccc(C2=N/C(=C\C(Cl)=C\c3ccccc3)C(=O)O2)c(Br)c1
120.4	CCN1CC2=C(OC(N)=C(C#N)C2c2ccccc2F)/C(=C/c2ccccc2F)C1 (configuration not stated)
106.5	CCCCCCCCCCCCOC1OC(COC(C)=O)C(OC(C)=O)C(OC(C)=O)C1NC(C)=O (configuration not stated)
98.0	CC(C)Cc1ccc(S(=O)(=O)Cc2nc(-c3ccccc3)no2)cc1

# Next section.
GIV Gai3 FP	SMILES
113.5	CCc1ccc(-c2csc(-c3cc4c(ccc5ccccc54)oc3=O)n2)cc1
104.6	O=C(NCC1CCCO1)N1CCCn2nc(-c3ccncc3)cc2C1 (configuration not stated)
108.3	O=c1oc2ccc(Br)cc2cc1-c1nc(-c2ccccc2)c2cc(Br)ccc2n1
103.3	COc1ccc([N+](=O)[O-])cc1NC(=O)c1sc2ncn(CC(=O)Nc3cccc(C(F)(F)F)c3)c(=O)c2c1C
99.7	CN(C)S(=O)(=O)c1cc2c(cc1N1CCC(Cc3ccccc3)CC1)Oc1ccccc1NC2=O
105.3	CCCc1cc(C2CCCN2Cc2cn[nH]c2-c2ccc(F)cc2)no1 (configuration not stated)
106.4	Cc1cccc(-n2c(=O)c3c(n4c(SCC(N)=O)nnc24)-c2ccccc2CC32CCCCC2)c1
116.0	COCc1cc(C)nc2sc3c(=O)n(-c4ccc(C(C)=O)cc4)nnc3c12
101.4	Cc1nc(-c2ccc(C)c(S(=O)(=O)N3CCCC(C(=O)NC4CCCC4)C3)c2)no1 (configuration not stated)
96.1	C=CCn1c(SCC(=O)Nc2ccc(OCC)cc2)nc2sc(C)c(C)c2c1=O
223.6	COc1ccc(-c2cn3nc(-c4ccccc4)c(-c4ccccc4)nc3n2)cc1
108.8	COc1ccc(NC2c3cccc4cccc(c34)C2NS(=O)(=O)c2ccccc2)cc1 (configuration not stated)
100.7	COc1cccc(NC(=O)Nc2ccc3c(c2)CN(Cc2ccccc2)C3)c1
107.5	O=C1C(=O)N(CCN2CCOCC2)C(c2ccccc2)/C1=C(\O)c1ccc(F)cc1 (configuration not stated)
107.7	COc1cccc(C2C(N3C(=O)c4ccccc4C3=O)C(=O)N2c2ccc(C)c(C)c2)c1 (configuration not stated)
103.0	CC(=O)N1CCc2cc(-c3ccc(C(=O)NCCc4c[nH]c5ccc(C)cc45)cc3)ccc21
104.9	N#CC1=C(N)Oc2n[nH]c(-c3ccc4c(c3)OCO4)c2C1c1ccc(Cl)c([N+](=O)[O-])c1 (configuration not stated)
108.3	COCC1OC2OC3(CCCCC3)OC2C2OC3(CCCCC3)OC12 (configuration not stated)
102.4	COc1ccc(CNC(=O)C2CCCN2S(=O)(=O)c2cc3c(cc2C)NC(=O)CO3)cc1 (configuration not stated)
113.3	Cc1c(C#N)c2nc3c(c(-c4ccc(Br)cc4)c2n1-c1ccccc1)CCC3
108.7	Cc1ccc(N2C(=O)C(=O)/C(=C(\O)c3ccccc3)C2c2ccccc2F)cc1 (configuration not stated)
103.5	Cc1nn(-c2nc3ccccc3o2)c2c1C(c1cc(Br)ccc1F)CC(=O)N2 (configuration not stated)
102.5	CC1(C(=O)NCc2ccc(F)cc2)CCCN(C(=O)Nc2ccc3c(c2)OCCO3)C1 (configuration not stated)
99.2	COCCN1CCc2nc(SCc3ccc(Cl)cc3)[nH]c(=O)c2C1
100.1	COC(=O)c1ccccc1NC(=O)c1sc2ncnc(N(C)c3ccccc3)c2c1C
111.2	COC(=O)C1=CN(CCC23CC4CC(CC(C4)C2)C3)C=C(C(=O)OC)C1c1cc(OC)c(OC)c(OC)c1
92.2	O=C1NC(c2ccc(O)cc2O)Nc2sc3c(c21)CCCC3 (configuration not stated)
106.9	O=C(Cn1nc2c(N3CCSCC3)nccn2c1=O)NC1CCCC1
105.8	CCN1CCN(c2ncc(N3CCC(C(=O)N4CCC5(CC4)OCCO5)CC3)cn2)CC1
107.0	CCOC(=O)C1=C(O)/C(=C/c2ccc(OC)cc2)SC1=Nc1ccc(OC)cc1

# The list continues:
GIV Gai3 FP	SMILES
98.9	Cc1cccc(CNC2=NCCNC23CCCC(C)C3)c1 (configuration not stated)
100.4	COc1cc(C2C3=C(CC(C)(C)CC3=O)N(CC(=O)O)C3=C2C(=O)CC(C)(C)C3)ccc1OCc1ccc(Cl)cc1
98.6	CCc1nc(-c2cc(S(=O)(=O)N3CCN(c4ccc(F)cc4)CC3)c(C)s2)cs1
103.9	Cc1c(C(=O)Nc2ccc(C(F)(F)F)cc2)sc2ncn(CC(=O)N3CCN(c4ccccn4)CC3)c(=O)c12
112.0	O=C(Nc1ccc(Br)cc1)C(Cc1ccccc1)N1C(=O)C2C3c4ccccc4C(c4ccccc43)C2C1=O (configuration not stated)
106.2	Cc1cc(N2CCCC2)nc(N2CCN(C(=O)C3CCCCC3)CC2)n1
104.8	Cc1ccc(C(=O)N/C(=C/c2cccc([N+](=O)[O-])c2)C(=O)Nc2ccc(Br)cc2)cc1
101.3	CCS(=O)(=O)N1CCCN(C(=O)NC)CC1
100.0	CCCCC1CCC(C(=O)Nc2nnc3n2CCCS3)CC1 (configuration not stated)
107.8	O=S(=O)(c1cccc2ccccc12)n1nnc2cc(Cl)ccc21
105.5	CC(=O)C1=NN(c2ccccc2)C(c2c[nH]c3ccccc23)N1c1ccc(C)cc1 (configuration not stated)
106.1	Cc1nc(N2CCN(C)CC2)c2c(C)c(C(=O)Nc3ccccn3)sc2n1
99.1	COCCNC(=O)c1ccc2c(c1)nc1n2CCCCC1
119.0	CCOC(=O)C1=C(C)N=c2s/c(=C/c3cc(Br)ccc3OC)c(=O)n2C1c1ccc2c(c1)OCO2 (configuration not stated)
103.2	CCN1CCN(S(=O)(=O)c2cc(-c3nnc(C4CC4)o3)co2)CC1
107.3	CC(=O)Nc1ccc(-c2noc(C3CCCN(C(=O)c4cccc5[nH]ccc45)C3)n2)cc1 (configuration not stated)
105.4	C=CCNC(=O)C1CCCN(C(=O)c2ccc(NS(=O)(=O)c3ccc4c(c3)CCCC4)cc2)C1 (configuration not stated)
102.9	CCOc1ccc(S(=O)(=O)Nc2ccc(-c3nnc(-c4ccccc4)o3)cc2)cc1
107.1	COc1cccc2cc(-c3nc(-c4ccc(Br)cc4)cs3)c(=O)oc12
110.9	O=C(c1ccccc1O)N1N=C(C(F)(F)F)CC1(O)c1cccnc1 (configuration not stated)
155.2	Cc1cc(C2CCCN2Cc2cn(C(C)C)c3ccccc23)no1 (configuration not stated)
108.8	O=c1/c(=C/c2ccccc2)sc2nc3cc(Br)cnc3n12
114.9	CCOC(=O)CSc1nc2cc(C(=O)Nc3ccc(OC)c(OC)c3)ccc2c(=O)n1CCc1ccccc1
108.0	Cc1c(Cl)cccc1NC(=O)CSC1=C(C#N)C(c2cccs2)C2=C(CCCC2=O)N1 (configuration not stated)

# This is a subset (hit frequency here may not be typical).
